Assay outcomes: PubChem, ICCB-Longwood Screening Facility, Harvard Medical School
BmaI1 enzyme: BmaI1 acyl-homoserine lactone synthase inhibition – biochemical, fluorescence intensity, with counterscreen (AID 720554). BmaI1 enzyme assay, fluorescence intensity; stronger effect = higher value; test concentration not given here; a few actives read low; strong numbers were not always called active. inhibition, %. 0.4% of 12,000 active;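 active = both replicates within 2 robust z-scores of the inhibited control and a quiet counterscreen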;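 also: 0% = uninhibited enzyme and 100% = inhibited control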
BmaI1 enzyme counterscreen: second read-out of BmaI1 enzyme, no call of its own (marks repeat the call); inhibition, %; measured here: counterscreen; design of the counterscreen not given here;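 first of two replicates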
* marks the source's active call; other numbers are inactive results.

SMILES	BmaI1 enzyme	BmaI1 enzyme counterscreen
N#Cc1ccsc1NC(=O)Cn1cnc2sccc2c1=O	35	20
COc1ccc(Br)cc1CN(C)CN1C(=O)C2CC=CCC2C1=O (centres undefined)	4	10
CC(C)Cc1nnc(NC(=O)CCn2[nH]c(=O)ccc2=O)s1	4	4
CC12CCC(=O)N1C(C(=O)NCCN1C(=O)S/C(=C\c3ccccc3)C1=O)CS2 (centres undefined)	3	-4
N#CC(C#N)=Cc1ccc(OC(=O)c2ccccn2)cc1	26	-3
Cc1cc(C(=O)N/N=C2\CCCc3ccccc32)c(C)o1	8	5
NC(=NCc1ccc(Cl)cc1)SCCCc1cnc[nH]1	-8	6
Cc1oc(-c2ccccc2)nc1C(=O)OCC(=O)C12CC3CC(CC(C3)C1)C2	6	6
Cc1csc(SCC(=O)N(C)Cc2ccccc2C)n1	8	0
N#Cc1ccc(OCC(=O)c2ccc3c(c2)OCO3)cc1	11	12
COCC(C)N=C1NN=C(c2cc(C)n(CC3COc4ccccc4O3)c2C)CS1 (centres undefined)	46	28
Cc1cnc(C(=O)OCC(=O)NCC23CC4CC(CC(C4)C2)C3)cn1	0	-1
CC(=O)Nc1nc(CSc2nc3ccccc3n2C)cs1	16	2
Cc1nc(-c2ccc3[nH]c(=O)oc3c2)cs1	78	21
COc1ccc(Cl)cc1C(=O)Nc1nc(-c2ccc(C)o2)cs1	24	6
CCS(=O)(=O)c1ccc2oc(=S)[nH]c2c1	18	2
CN(C)c1ccc(C(=O)OCCOc2ccccc2F)cc1	15	12
Cn1c(=O)c(C(=O)CSc2nncn2-c2ccccc2)c(N)n(Cc2ccccc2)c1=O	12	2
Cn1cnnc1Sc1ccc(Cl)cc1NC(=O)CN1C(=O)C2CC=CCC2C1=O (centres undefined)	26	-2
O=C(/C=C/c1ccccc1)OCC(=O)c1ccc(-n2nncc2-c2ccco2)cc1	10	2
O=C(OCC1CC1)c1cc2ccccc2o1	12	9
Cc1ccc(CN(C)CC(=O)Nc2c(C(C)C)cccc2C(C)C)o1	5	-1
CN(C)P1(=S)C2=C(N3CCCCC3)CC(C)(C)CC2=NN1c1ccccc1 (centres undefined)	5	4
COC(=O)c1sc(N)c(C(=O)OC)c1Cn1c(Cl)nc2c1c(=O)n(C)c(=O)n2C	12	-5
O=C(N/N=C/c1ccccc1)c1cccc(S(=O)(=O)N2CCCC2)c1	5	-6
CN(CC(=O)Nc1nnc(C2CC2)s1)S(=O)(=O)c1ccc(Cl)cc1	12	8
O=C(CSc1nnc(COc2ccccc2Cl)n1C1CC1)c1ccc(Cl)s1	48	10
CCOC(=O)c1ccccc1NC(=O)COC(=O)C(C)N=C1NS(=O)(=O)c2ccccc21 (centres undefined)	4	0
CC1=NN2C(=NC(=O)C(n3nnnc3C)C2c2ccccc2)O1 (centres undefined)	10	6
CC(=O)NCCc1ccc(C(=O)CSc2nnc(C3CC3)n2C2CC2)cc1	10	4
S=c1n(CN2CCOCC2)nc(-c2cccs2)n1CC1CCCO1 (centres undefined)	78	87
Cc1cc(=O)n2c(n1)OC(CO)C2 (centres undefined)	-6	-7
Cc1cc(/C=N/N2C(=O)c3ccccc3C2=O)cc(C)c1O	20	21
CCOC(=O)c1sc(N)c(C#N)c1COC(=O)c1c(CC)noc1C	17	12
CN(CC(=O)Nc1ccc(F)cc1)C(=O)Cc1coc2cc3c(cc12)CCC3	-8	-8
O=C1CCC(C(=O)OCc2csc(Nc3ccccc3)n2)N1 (centres undefined)	2	-6
Cc1ccc(S(=O)(=O)N2CCCC(C(=O)N/N=C3\CCS(=O)(=O)c4ccc(F)cc43)C2)cc1 (centres undefined)	11	-2
C=C(C)CN(CC)c1nc(N)c2c(N)nc3c(c2c1C#N)CC(=O)N3C12CC3CC(CC(C3)C1)C2	6	5
CCC(=O)N(c1nnc(SCC(=O)c2c(N)n(C)c(=O)[nH]c2=O)s1)C1CC1	26	9
CC1(C)SC2C(NC(=O)C(N)c3ccccc3)C(=O)N2C1C(=O)O (centres undefined)	0	8

The final 3 compounds of the section above open the next one:
SMILES	BmaI1 enzyme	BmaI1 enzyme counterscreen
C=C(C)CN(CC)c1nc(N)c2c(N)nc3c(c2c1C#N)CC(=O)N3C12CC3CC(CC(C3)C1)C2	6	5
CCC(=O)N(c1nnc(SCC(=O)c2c(N)n(C)c(=O)[nH]c2=O)s1)C1CC1	26	9
CC1(C)SC2C(NC(=O)C(N)c3ccccc3)C(=O)N2C1C(=O)O (centres undefined)	0	8
CCOC(=O)C(Sc1nncn1-c1ccccc1C)c1ccccc1 (centres undefined)	22	10
CN1C(=O)CC[C@H]1c1cccnc1	-10	-3
N#Cc1c(N2CCCC2)oc2nc3ccccc3nc12	10	10
O=C(O)COCCN1CCN([C@H](c2ccccc2)c2ccc(Cl)cc2)CC1	8	3
COc1ccccc1CN1C(=O)NC2(CCOc3ccccc32)C1=O (centres undefined)	6	4
CC(=O)OCc1ccc(/C=C/C(=O)O)o1	12	1
CC(C)Cn1c(O)c(Nc2ccc3c(c2)=NC(=O)N=3)c2ccccc21	-4	0
CCN(CC)S(=O)(=O)c1ccc2c(c1)nc(CCC(=O)OCCOc1ccc(C)cc1)n2C	18	-4
C/C(N)=C(/C#N)C(=O)COc1ccccc1F	0	2
O=C(CSc1nnc(-c2ccncc2)n1-c1ccccc1)NC(=O)NC1CCCC1	20	8
CCOC(=O)c1sc(NCc2ccco2)c(-c2nc3ccccc3s2)c1N	44	26
COc1ccc(CCN2CC(C(=O)N(C)C)CC2=O)cc1OC (centres undefined)	4	5
CC1=CC(C)(C)NC(=O)N1c1cccc(F)c1	-6	2
CCN(CC)S(=O)(=O)c1cccc(C(=O)OCc2nnc(-c3ccccc3)o2)c1	6	0
O=C(Nc1ccc(Oc2ccccc2)cc1)c1ccccn1	14	8
O=C(CSc1ncnc2sccc12)NC(=O)CN1CCCC1=O	10	5
O=C(O)C1(c2ccccc2)CCN(S(=O)(=O)c2ccccc2)CC1	12	16
NC(=O)N1c2ccccc2C=Cc2ccccc21	-15	-13
CC(Sc1nnc(N)s1)C(=O)Nc1ccc(F)c(F)c1F (centres undefined)	-2	48
CS(=O)(=O)c1ccccc1C(=O)Nc1cc2c(cc1C(=O)O)OCCO2	21	2
CCCCCCOc1ccc(C2C(C#N)=C(C)NC(C)=C2C#N)cc1	6	0
COc1ccccc1NC(=O)CN(Cc1ccco1)C(=O)Cc1ccc(Cl)cc1	9	4
CC(Sc1nnc(-c2cccs2)n1-c1ccccc1)C(=O)NC1(C#N)CCCCC1 (centres undefined)	3	2
CSc1nc2ccc(NC(=O)/C=C/c3ccc(C)o3)cc2s1	12	7
O=C(CSc1ccc2c(c1)CCC2)N(Cc1nnc(-c2ccc(Cl)cc2)o1)C1CC1	8	-6
CCCCn1c(=O)c(CCC(=O)OCc2nnc(-c3cc4c(s3)CCCC4)o2)nc2ccccc21	22	14
COc1cccc(C(=O)Nc2sccc2C#N)c1	4	-6
COCc1c(C(=O)Nc2ccc(OC)cc2OC)oc2ccccc12	13	12
CS(=O)(=O)c1ccc(C(=O)OCc2ccccc2F)cc1	12	10
O=C(OCC(=O)N1N=C(c2ccc(Cl)cc2)CC1c1ccco1)c1ccccc1 (centres undefined)	8	10
CSc1ncc(C(=O)OC(C)c2nc3ccccc3c(=O)[nH]2)n1-c1ccc(F)cc1 (centres undefined)	11	0
CC1(C)CC(=S)C=C(N2CCOCC2)C1	70	4
O=C(N/N=C/c1c[nH]c2ccc(Br)cc12)C1CC1	-10	-3
CS(=O)(=O)NCCc1ccc(C(=O)O)cc1	14	0
COc1ccc2nc(N=NC3=C(O)CC(C)(C)CC3=O)sc2c1	12	-2
Fc1ccccc1NC(=S)N/N=C/c1cn(-c2ccccc2)nc1-c1cc2ccccc2o1	6	2
O=C(OCC(=O)N1c2ccccc2Sc2ccccc21)c1cnccn1	5	2
Cn1c(C(C#N)C(=O)c2cc(-c3cccnc3)nc3ccccc23)nc2ccccc21 (centres undefined)	2	-14
O=c1c2ccccc2nnn1CSc1nc2cc(Cl)ccc2c(=O)n1C1CCCC1	2	-6
CCCNC(=O)CN1CCN(c2cc3ccccc3c(Cl)n2)CC1	20	2

Complete entries from above:
O=C(CSc1ccc2c(c1)CCC2)N(Cc1nnc(-c2ccc(Cl)cc2)o1)C1CC1 across the screens: BmaI1 enzyme = 8; BmaI1 enzyme counterscreen = -6
O=C(OCC(=O)N1c2ccccc2Sc2ccccc21)c1cnccn1 across the screens: BmaI1 enzyme = 5; BmaI1 enzyme counterscreen = 2

The list continues.
SMILES	BmaI1 enzyme	BmaI1 enzyme counterscreen
CC(c1ccccc1)n1c(SC(F)F)nc2ccccc2c1=O (centres undefined)	18	12
CCOC(=O)/C=C1\SCC(=O)N1Cc1ccc(C(=O)OC)cc1	11	6
CSc1nc(C)c(CCC(=O)OCC(N)=O)c(C)n1	1	8
CC1(c2ccc3c(c2)OCCO3)NC(=O)N(CC#N)C1=O (centres undefined)	8	8
O=C(O)CCn1cc(/C=C2\SC(=S)NC2=O)c(-c2ccccc2)n1	21	29
NC(=O)NCC(=O)N1CCN(c2c(F)c(F)c(F)c(F)c2F)CC1	11	-1
Cn1c(N)c(C(=O)COC(=O)CC2CC3CCC2C3)c(=O)n(C)c1=O (centres undefined)	10	0
CC[N+](C)(C)c1cccc(O)c1	-2	1
Cc1ccc(S(=O)(=O)N2CCN(c3ncnc4sccc34)CC2)cc1C	14	4
O=C(OCc1cccc2ccccc12)C1CCN(c2nc3ccccc3o2)CC1	16	9
COc1cccc(NC(=O)CN(C)C(=O)c2ccccn2)c1	10	2
Cc1cc(C(=O)NN=C2CCCC2)c(C)n1-c1ccccc1	64	48
CN(C)S(=O)(=O)c1cccc(-c2nnc(SCc3cc(Cl)cc4c3OCOC4)n2N)c1	76	22
CCOC(=O)C1=C(NC(=O)c2cccc(F)c2)Nc2ccccc2N=C1	12	4
Cc1cnc(NC(=O)[C@@H](NC(=O)c2ccccc2F)C(C)C)s1	6	10
CC(C)(C)OC(=O)Nc1cccc(C(=O)O)c1	20	21
O=C(NCc1ccco1)C1=NN(c2ccccc2)C(=O)CC1	8	-4
Brc1cnc2nc(-c3ccccc3)[nH]c2c1	6	6
CC(CCCCC(=O)Nc1ccc(C(F)(F)F)cc1)NCCc1cnc[nH]1 (centres undefined)	60	20
O=C(Nc1ccc2c(c1)OCO2)c1cc(S(=O)(=O)N2CCN(c3ccccc3)CC2)ccc1Cl	18	13
C/C(=N\NC(=O)CCc1ccc(S(=O)(=O)N2CCOCC2)cc1)c1ccc2c(c1)OCCO2	2	2
C=CCn1c(=S)[nH]c2cc(C(=O)N3CCN(c4ccccc4OC)CC3)ccc2c1=O	8	3
COc1ccc(CNC(=O)COC(=O)Cc2n[nH]c(=O)c3ccccc23)cc1	18	1
Cc1n[nH]c(C)c1NC(=O)CSc1nnc(-c2ccoc2C)n1-c1ccccc1	10	18
COC(=O)C1=C(C)NC(C)=C(C(=O)OCCN(C)Cc2ccccc2)C1c1cccc([N+](=O)[O-])c1 (centres undefined)	2	-4
O=C(CCc1c[nH]c2ccccc12)N(Cc1cccnc1)c1ccc2c(c1)OCO2	14	-2
O=C(OCCOc1ccccc1)c1ccccc1C(=O)N1CCN(c2ccc(F)cc2)CC1	20	9
Cc1cc(C)n(CCCNC(=O)CSc2ncnc3scc(-c4ccccc4)c23)n1	21	11
COC(=O)c1cc(-c2c(C)oc3cc(O)ccc3c2=O)c(C)o1	16	-1
CCOc1ccccc1N1CC(C(=O)NC2CCCCCC2)CC1=O (centres undefined)	8	8
Cc1ccc(SCCN2C(=O)NC3(CCCC3)C2=O)cc1	12	-3
NS(=O)(=O)c1ccc(CNCC(F)(F)F)cc1	26	-2
Cn1cccc1C(=O)Nc1ccc2c(c1)nc1n2CCCCC1	18	27
CC1(NC(=S)Nc2ccccc2)CCS(=O)(=O)C1 (centres undefined)	-29	4
CC1(C)CC2CC(C)(CN2c2nc3ccccc3[nH]c2=O)C1 (centres undefined)	18	6
Cc1csc(C(C#N)C(=O)CSc2nnc(NC3CC3)s2)n1 (centres undefined)	76	3
COc1cc2c(cc1OC)CN(C(=O)c1cc(=O)c3ccccc3o1)CC2	6	14
CCn1c(SCc2nc3cc(OC)c(OC)cc3c(=O)[nH]2)nc2ccccc21	10	2
Ic1ccc(-c2ncc3ccccn23)cc1	18	11
Cc1ccccc1N=C1SCCCN1C(=O)c1ccc2c(c1)OCO2	18	12

In a second layout: 2 of the compounds above
Cc1csc(C(C#N)C(=O)CSc2nnc(NC3CC3)s2)n1 (centres undefined)
- BmaI1 enzyme = 76
- BmaI1 enzyme counterscreen = 3

COc1cc2c(cc1OC)CN(C(=O)c1cc(=O)c3ccccc3o1)CC2
- BmaI1 enzyme = 6
- BmaI1 enzyme counterscreen = 14

New compounds follow.
SMILES	BmaI1 enzyme	BmaI1 enzyme counterscreen
O=C(OCc1nnc(-c2ccccc2)o1)[C@@H]1CCCN1S(=O)(=O)c1ccc(Cl)cc1	12	2
CCN(CC)P1(=O)OC(c2cc(OC)c(OC)c(OC)c2)=Nc2c1c(C)nn2-c1ccccc1 (centres undefined)	-3	-10
Cc1sc2ncnc(OCC(=O)N3CCN(S(=O)(=O)c4ccc(Cl)cc4)CC3)c2c1C	12	12
O=C(OCc1cc2c(cc1Br)OCO2)c1cnccn1	12	2
CCN1CCCC1CNc1ncnc2sc3c(c12)CCC3 (centres undefined)	16	14
Cc1cc(C)n(-c2ccc(C(=O)Oc3ccc4c(c3)OCO4)cc2)n1	12	9
N#Cc1cc(-c2nc(-c3ccccc3)cs2)c(N)nc1SCC(=O)c1ccc[nH]1	12	-1
N#Cc1ccc(OCC(=O)NCCOc2ccccc2F)cc1	6	7

An excerpt; rates above refer to the full screens.
